# CBX7 AlphaScr = CBX7 chromodomain binding inhibitors, primary screen, biochemical, AlphaScreen; Chromobox protein homolog 7 (Homo sapiens), O95931; AlphaScreen His6-CBX7 / biotin-H3K27me3 peptide binding; active compounds read low; normalised signal (fraction of DMSO) (concentration not given with the values); 66,000 tested, 1.1% active; AID 1224903, 2016; in the data active = normalised signal below about 0.5;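 also: 100 nL library stock added to about 20 µL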
# Target sequence (O95931 whole entry, looked up): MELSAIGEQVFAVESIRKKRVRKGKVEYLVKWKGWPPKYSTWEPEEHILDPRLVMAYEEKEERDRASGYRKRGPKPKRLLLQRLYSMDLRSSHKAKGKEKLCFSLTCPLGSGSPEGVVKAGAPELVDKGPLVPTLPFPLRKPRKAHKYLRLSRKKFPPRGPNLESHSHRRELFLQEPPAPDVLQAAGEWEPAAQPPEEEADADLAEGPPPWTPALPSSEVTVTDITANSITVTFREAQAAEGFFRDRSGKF
# CBX7 AlphaScr z-score = second read-out of CBX7 AlphaScr, no call of its own (marks repeat the call); z-score; measured here: z-score of CBX7 signal; some inactives read as strong as hits; reference of the scale not given here;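 same signal on another scale; lower means less binding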
# An asterisk follows results filed as active; & = joins results of further samples.
SMILES,CBX7 AlphaScr z-score,CBX7 AlphaScr
CCOC(=O)N1CCC(N2Cc3cccc(C(=O)Nc4ccc(OC)c(OC)c4)c3C2=O)CC1,0.34,1
CCN(CC)c1cc(C)c2cc(NC(=O)Cc3cccc(C(F)(F)F)c3)ccc2n1,-0.3,0.97
Cc1ccc(-c2ccc(=O)n(CCC(=O)NC3CCCCC3C)n2)cc1 (stereo not drawn),-0.17,0.92
Cc1ccc(C2CC(c3ccc(Br)cc3)n3ncnc3N2)cc1C (stereo not drawn),-1.7,0.94
Cc1cccc(C(=O)Nc2nc(-c3ccccc3)cs2)c1,0.22,1.1
O=C(COc1ccccc1Br)Nc1ccc(S(=O)(=O)Nc2ncccn2)cc1,0.18,1
O=C(CN1C(=O)CSc2ccc(S(=O)(=O)N3CCCCCC3)cc21)NC1CC1,-1.5,0.94
Cc1ccc(NC(=O)CCc2c(C)nc3nc(C)nn3c2C)c(C)c1,-0.049,0.99
CN(C(=O)c1cc2c(s1)-c1ccccc1OC2)C1CCCCC1,4.1,1.1
Cc1ccc(CNC(=O)C(=O)NCCc2c[nH]c3ccccc23)cc1,-0.74,0.97
COC(=O)c1cc2ccsc2n1CC(=O)NCC1CCCO1 (stereo not drawn),-0.35,0.99
CCCCNC(=O)c1ccc2c(c1)N(Cc1ccccc1)C(=O)CS2,-0.52,0.96
CCOc1ccc2nc(N3CCC(C(=O)NCCN4CCOCC4)CC3)sc2c1,0.032,1
CC1CCCCN1C(=O)c1cc(-c2cccc(Cl)c2)on1 (stereo not drawn),-0.12,0.99
CC(C)c1ccc(-c2cc(C(=O)O)c3cc(Br)ccc3n2)cc1,0.096,1.1
O=c1oc2ccccc2cc1-c1nc2ccccc2c(=O)[nH]1,0.6,1.1
COc1ccc(N2C(=O)c3ccc(C(=O)Nc4ccccc4OC)cc3C2=O)cc1,-2.5,0.93
Cc1ccc(-c2nn(CCC(=O)NCc3ccccc3)c(=O)c3ccccc23)cc1,0.91,1
CCOc1ccccc1N(C)C(=O)c1nn(-c2ccc(OC)cc2OC)c(=O)c2ccccc12,-0.81,0.87
COCCN(C(=O)Nc1ccc(OC)cc1OC)C1CCN(C(C)C)CC1,0.18,1
CC(CCc1ccccc1)NC(=O)c1cc(=O)[nH]c2ccccc12 (stereo not drawn),0.024,1
CCOc1ccc(C(=O)Nc2cc(-c3nc4cc(C)ccc4o3)ccc2C)cc1,1.4,1.3
COc1ccc(-c2cc(C(=O)NCc3cccnc3)no2)cc1OC,0.083,1
Cc1ccc2nc(-c3c[nH]c4ccccc34)c(NC3CCCC3)n2c1,-0.5,0.98
Cc1cccc(-c2nc3ccccc3c(=O)n2CC(=O)Nc2ccc(F)c(Cl)c2)c1,0.93,1
O=C(Nc1ccc(Br)cc1)Nc1ccc2snnc2c1,1.9,1
CCn1cc(C(=O)N(C)c2cccc(C)c2)c2cc(OC)c(OC)cc2c1=O,0.34,1
CCOc1ccc(N2C(=O)CC(NCc3ccc(Cl)cc3Cl)C2=O)cc1 (stereo not drawn),5,1.1
Cc1nc2c(C(=O)NCCC3=CCCCC3)cnn2c(C)c1Cc1ccc(F)cc1,-4.2,0.85
O=C(Nc1ccc(Cl)cc1)N(Cc1cccnc1)Cc1cccc(C(F)(F)F)c1,-0.75,0.94
CCCOc1ccc(C(=O)NCC2(c3ccccc3)CCOCC2)cc1,3.6,1.1
CC(C)C12CN3CC(C(C)C)(CN(C1)C3c1ccc(O)cc1O)C2=O (stereo not drawn),0.45,1
CC(C)CCNC(=O)C1CCCN(c2nc3ccccc3[nH]2)C1 (stereo not drawn),0.54,1
Cn1c(SCC(=O)Nc2ccc(Cl)c(Cl)c2)nnc1-c1c[nH]c2ccccc12,-0.93,0.9
COc1ccc(-c2nnc(SCC(=O)NCc3ccccc3)n2-c2ccccc2)cc1OC,1.7,1.1
Cc1ccc(CNC(=O)c2ccc3c(c2)nc(C)n3-c2cccc(Cl)c2)cc1,-0.32,0.67
Cc1ccccc1N1C(=O)c2ccccc2C1Nc1ccc(F)cc1F (stereo not drawn),-2.2,0.93
Cc1ccc(-c2ccc(=O)n(CCC(=O)NCCc3ccccc3)n2)cc1,0.27,1
Cc1ccccc1NC(=O)c1cccc2c1C(=O)N(C1CCCCC1)C2,-0.4,0.97
Cc1ccc(NC(=O)Cn2nc(C)c3ccccc3c2=O)cc1,-0.23,0.99
CCc1ccccc1NC(=O)C1c2ccccc2C(=O)N2CCc3ccccc3C12 (stereo not drawn),0.17,1.1
OCCNc1ccc2nnc(C(F)(F)C(F)(F)F)n2n1,0.99,1.1
CCOCCCNC(=O)CN1C(=O)CSc2ccc(S(=O)(=O)N3CCCCC3)cc21,1.3,1
COc1ccc(OC)c(NC(=O)CN2C(=O)CC(C)(C)Sc3ccccc32)c1,-3,0.9
c1ccc(CCNc2ccc3nncn3n2)cc1,0.58,1
CCN1CCN(C(=O)Cn2ncc3c2-c2cc(C)ccc2OC3)CC1,-1.3,0.95
COc1ccc(-n2nnc3c(=O)n(CC(=O)Nc4ccc(OC)cc4OC)cnc32)cc1,-1.2,0.94
CCOc1ccc(OCC)c(NC(=O)C2CCCN(S(=O)(=O)c3cccs3)C2)c1 (stereo not drawn),-0.35,0.73
O=S(=O)(Nc1nc2ccccc2nc1Nc1ccccc1F)c1ccc(Cl)cc1,-0.23,0.98
Brc1ccccc1-c1nnc(-c2cccnc2)o1,0.68,1
O=C(CSc1oc(-c2ccccc2)nc1S(=O)(=O)c1ccc(F)cc1)NC1CCCCC1,-1.2,0.91
COc1ccc(OC)c(-c2cc(C(=O)Nc3c(C)nn(Cc4ccc(Cl)cc4)c3C)no2)c1,0.43,1.1
COc1cccc(-c2cc(C(F)(F)F)nc(N3CCCC3)n2)c1,12,2.5
O=C(Cc1ccc(-n2c(=O)[nH]c3ccsc3c2=O)cc1)N1CCN(c2ccccn2)CC1,0.66,1.1
CCc1ccc(NC(=O)c2cnn(-c3ccc(F)cc3)c2C2CCN(C(=O)OC(C)(C)C)CC2)cc1,-0.58,0.98
Cc1ccc(C)c(N(C)C(=O)Cn2nc(Cc3cccnc3)c3ccccc3c2=O)c1,-0.93,0.97
O=C1CSC(c2ccccc2)N1c1ccc(Br)cc1 (stereo not drawn),-2.4,0.77
COc1ccc(NC(=O)c2nn3c(C(F)(F)F)cc(-c4ccccc4)nc3c2Br)c(OC)c1,0.091,1
O=C1CCc2cc(S(=O)(=O)Nc3ccc(F)c(F)c3)ccc2N1,0.79,1
CCCCN(CCCC)CCCNC(=O)c1ccc2nc(-c3ccccc3NC(C)=O)c(=O)[nH]c2c1,-0.89,0.95

# Carrying on:
SMILES,CBX7 AlphaScr z-score,CBX7 AlphaScr
COc1ccccc1N1C(=O)c2ccc(C(=O)Nc3cccc(O)c3)cc2C1=O,-1.9,0.92
O=C(c1ccccc1)c1cn(Cc2ccc(F)cc2)c2c(F)cc(F)cc2c1=O,-1.8,0.81
Cc1onc(-c2c(Cl)cccc2Cl)c1C(=O)N1CCC(Cc2ccccc2)CC1,-2,0.68
COc1ccc(Cn2c(CCC(=O)NCc3ccccc3Cl)nc3cccnc32)cc1,2.6,1.1
CCCCN(C)CCNC(=O)CCn1nc(-c2ccc(Cl)cc2)ccc1=O,3.6,1.2
Cc1ccc2c(c1)C(c1ccc(F)cc1)N(C(=O)Cc1ccccc1)CC(=O)N2 (stereo not drawn),1.2,1.1
COc1ccc(-c2onc3ccc(Cl)cc23)cc1OC,3.1,1.2
COCCCNC(=O)c1cc(Nc2ccccc2C)nc2ccccc12,-1.7,0.89
COCCNC(=O)C1c2ccccc2C(=O)N2CCc3cc(OC)c(OC)cc3C12 (stereo not drawn),2.3,1.1
CC1CCN(CCCNC(=O)C2CC(=O)N(C3CCCCC3)C2)CC1 (stereo not drawn),0.077,1
CCS(=O)(=O)N1CCCC(C(=O)NCCc2ccc(C)cc2)C1 (stereo not drawn),1.7,1.1
Cn1c(SCc2nc(-c3ccc(Cl)cc3)no2)nnc1-c1cccs1,-0.95,0.96
CC(CCc1ccccc1)NC(=O)c1cc(Nc2cccc(C(F)(F)F)c2)nc2ccccc12 (stereo not drawn),0.89,1.2
COc1ccccc1C1NC(c2ccccc2OC)C(C)C(=O)C1C (stereo not drawn),1.2,1
Cc1ccc(NC(=O)C(CC(C)C)N2C(=O)c3ccccc3C2=O)cc1 (stereo not drawn),0.028,1
CC1CCC2C(C)(CO)C(O)CCC2(C)C12CCC(C)(CO)O2 (stereo not drawn),1.5,1
COc1ccc(NC(=O)CCc2nc3ccccc3[nH]2)cc1,0.9,1
Cc1nc2ncnn2c(C)c1CCC(=O)Nc1ccc(F)cc1,0.34,1
O=C(CN1C(=O)CSc2ccccc21)NC1CCCCCC1,0.11,1
Cc1nc2c(C(=O)NCCN(C)Cc3ccccc3)cnn2c(C)c1Cc1ccccc1,-0.15,0.99
Cc1cc2cc(CCNC(=O)Cc3cccc4ccccc34)c(=O)[nH]c2cc1C,-0.32,0.95
CN1C(=O)CSc2ccc(NC(=O)N3CCOCC3)cc21,-2.7,0.95
CCOC(=O)N1CCC(NC(=O)CS(=O)(=O)Cc2nc(-c3ccc(OC)cc3)oc2C)CC1,0.01,1
COc1ccc(OC)c(CNC(=O)c2cn(C3CCCC3)c(=O)c3c2c2ccccc2n3C)c1,-1.5,0.94
COc1ccc(-c2cc3nc(C)c(CCC(=O)Nc4c(C)cc(C)cc4C)c(C)n3n2)c(OC)c1,-0.48,0.96
Cc1cccc(C2Nc3ccccc3C(=O)N2CCc2ccccc2)n1 (stereo not drawn),0.065,1
CCN1CCCC1CNC(=O)CN1C(=O)COc2ccc(S(=O)(=O)N3CCOCC3)cc21 (stereo not drawn),1.8,1.1
O=C(CN1C(=O)CSc2ccccc21)NCc1cccnc1,-2.1,0.88
O=C(CSc1nnc(Cc2cc(=O)[nH]c(=O)[nH]2)n1-c1ccccc1)NC1CCCC1,1.4,1
O=C(CCCN1C(=O)CSc2ncccc21)NCc1ccccc1Br,-3,0.6

# 3 entries from above, ordered by the value under CBX7 AlphaScr z-score, largest number first:
molecule | CBX7 AlphaScr z-score
O=C(CSc1nnc(Cc2cc(=O)[nH]c(=O)[nH]2)n1-c1ccccc1)NC1CCCC1 | 1.4
CCOC(=O)N1CCC(NC(=O)CS(=O)(=O)Cc2nc(-c3ccc(OC)cc3)oc2C)CC1 | 0.01
Cc1nc2c(C(=O)NCCN(C)Cc3ccccc3)cnn2c(C)c1Cc1ccccc1 | -0.15

# Full records from above. Screens in order: CBX7 AlphaScr z-score | CBX7 AlphaScr
# O=C(CN1C(=O)CSc2ccccc21)NC1CCCCCC1 in the list: 0.11 | 1
# Cc1nc2ncnn2c(C)c1CCC(=O)Nc1ccc(F)cc1 in the list: 0.34 | 1
# Cc1cc2cc(CCNC(=O)Cc3cccc4ccccc34)c(=O)[nH]c2cc1C in the list: -0.32 | 0.95
# CN1C(=O)CSc2ccc(NC(=O)N3CCOCC3)cc21 in the list: -2.7 | 0.95
# Cc1nc2c(C(=O)NCCN(C)Cc3ccccc3)cnn2c(C)c1Cc1ccccc1 in the list: -0.15 | 0.99

# New compounds follow.
SMILES,CBX7 AlphaScr z-score,CBX7 AlphaScr
COc1ccc(N2CCN(CC(O)COc3cc(C)cc(C)c3)CC2)cc1 (stereo not drawn),-3.8,0.88
COc1ccc(-c2noc(COc3ccc(Cl)c(C)c3)n2)cc1,0.99,1.1
CC(=O)c1cccc(Nc2nc(-c3c(C)nc4cc(C)ccn34)cs2)c1,-2.6,0.89
Cc1ccc2nc(-c3ccc(N4C(=O)CC(N5CCC(C)CC5)C4=O)cc3)sc2c1 (stereo not drawn),-0.27,0.98
O=C(C1CCN(c2nc3ccccc3n2Cc2ccc(F)cc2)CC1)N1CCCC1,-1.6,0.94
Cc1cc(C)c2oc(-c3cccc(NC(=O)c4cccnc4)c3)nc2c1,-1.1,0.96
CCOC(=O)c1c(C)n(C)c2ccc(OCC(O)Cn3c(C)nc4ccccc43)cc12 (stereo not drawn),-2.4,0.95
CCn1c(C(=O)NCc2ccc(F)cc2)cc2sc(Cl)cc21,0.92,1
CCc1cccc(NC(=O)CN2C(=O)c3ccccc3S2(=O)=O)c1,2,1.2
COc1cccc(CNC(=O)CCC(=O)Nc2ccc3nc(N4CCCCC4)cc(C)c3c2)c1,2.7,1.1
CCc1ccc(-c2nc3cc(NC(=O)c4ccc(C)c(C)c4)ccc3o2)cc1,-1.9&1.6,0.84&1.1
O=C(Cn1nc(-c2ccccc2)ccc1=O)NC1CC1,-0.68,0.97
O=[N+]([O-])c1cccc(S(=O)(=O)Nc2cccc(-c3cn4ccccc4n3)c2)c1,-1.8,0.95
O=C(NCCN1CCOCC1)c1ccc2c(=O)n(CCc3ccccc3)c(=O)[nH]c2c1,0.95,1
CCOC(=O)c1c(NC(=O)CCOc2ccccc2)sc2c1CCCC2,0.073,1
CCCc1cc(-c2oncc2-c2ccccc2)c(O)cc1OC,-0.79,0.82
Cc1cccc(Nc2nc(Cc3ccccc3)nc3sc(C)c(C)c23)c1,0.1,1.1
CCN(CC)CCNC(=O)Cn1cnc2sc(C)c(S(=O)(=O)N3CC(C)CC(C)C3)c2c1=O (stereo not drawn),1.9,1.1
CCOC(=O)C1CCN(c2c(N3CCCC3)c(=O)c2=O)CC1,0.59,1
O=C(CN1C(=O)CSc2ncccc21)NCCN1CCCCCC1,0.27,1.1
CCCC1=Nc2cc(C(=O)NCCc3ccc(OC)c(OC)c3)ccc2Sc2ccc(C)cc21,-1.4,0.9
Cc1ccc2cc(CCNC(=O)C3CCCC3)c(=O)[nH]c2c1C,0.04,1

# This is a subset (hit frequency here may not be typical).
